Vaccinia mCherry – inhibitors of vaccinia virus infection (mCherry reporter signal) | AID 720579 | Vaccinia virus mCherry reporter infection, fluorescence; about a quarter of the inactives have no number | 310,000 compounds, 0.63% hits | Potency, µM (titrated, usually from 36.5 µM), for the others: at the highest dose activity change, negative = inhibition, most hits filed as inhibitors; active = well fitted inhibition curve with a large enough effect; inconclusive = small, poorly fitted or top-dose-only effect; inactive = no such curve, though single readings can be large or run the other way; tested in A549 cells; also: nearly all actives have a fitted effect of over 35% in size; inactives centre near -10
VACV Venus inh – vaccinia inhibition (Venus reporter); AID 720580; Potency, µM (series often up to 36.5 µM), for inactives: at the highest dose activity change, negative = inhibition, actives largely listed as inhibitors; 330,000 compounds, 0.46% hits; Vaccinia virus Venus reporter expression, fluorescence; active means well fitted inhibition curve with a large enough effect; inconclusive means small, poorly fitted or top-dose-only effect; inactive means no such curve, though single readings can be large or run the other way; tested in A549 cells; also: nearly all actives have a fitted effect of over 30% in size; inactives centre near -10
Numbers without * were called inactive; i = inactive; ? = inconclusive; · = no result given; & = joins results of further samples; [ ] = remark or other dose. % is scaled to controls: 0 for no effect and ±100 for the full control effect; potency is read from the fitted curve at half-maximal effect.

smiles,Vaccinia mCherry,VACV Venus inh
COc1ccc(-c2cc(C(F)(F)F)c(C#N)c(SCC(=O)Nc3ccccc3F)n2)cc1,-1%,4%
CCOC(=O)c1cc(-c2ccccc2)n(-c2cccc(C(=O)Nc3cccc(SC)c3)c2)c1C,i,-3%
CC1CCN(c2ccc3nnc(CCC(=O)Nc4cccc(F)c4)n3n2)CC1,-10%,-15%
COc1cccc(CCNC(=O)c2cnc3sc(N4CCOCC4)nn3c2=O)c1,-22%,-8%
O=C(CSc1nnc(C2COc3ccccc3O2)o1)N1CCCc2ccccc21 (configuration not stated),·,?
Cn1c(=NC(=O)c2ccc(S(=O)(=O)N3CCCc4ccccc43)cc2)sc2cc(F)ccc21,-7%,-11%
COc1ccccc1C1=NOC(COc2ccc3c(C)cc(=O)oc3c2)C1 (configuration not stated),-13%,-29%
Cc1cccc(NC(=O)C(=O)NCC(c2cccnc2)N2CCc3ccccc32)c1C (configuration not stated),-22%,-16%
CCOC(=O)COc1ccc(S(=O)(=O)NCc2cccnc2)cc1,-8%,-9%
Cc1ccc(-c2ccc(CCC(=O)O)n2-c2ccc(C(C)C)cc2)cc1,-25%,-24%
COc1cccc2cc(C(=O)N3CCN(c4ccc(C)cc4C)CC3)c(=O)oc12,-25%,?
O=C(O)c1ccccc1C(=O)Nc1ccccc1NC(=O)c1ccccc1C(=O)O,-2%[7.34 µM],0%[7.34 µM]
O=C(NCc1cccs1)c1ccc2sc([C@H]3C[C@H](O)[C@@H](CO)O3)nc2c1,19%,1%
O=C(COC(=O)c1ccc(N2CCOCC2)c([N+](=O)[O-])c1)Nc1ccc2c(c1)OCO2,i,-7%
COc1c(CC=C(C)C)c(O)cc2oc(=O)c3c4ccc(O)cc4oc3c12,-6%,0%
CC1CCN(C(=O)CCS(=O)(=O)c2cc3c(cc2Cl)NC(=O)CO3)CC1,-5%&-7%,-8%&-1%
CN(/N=C/c1cc(Cl)cc(Cl)c1O)c1c(Cl)cccc1[N+](=O)[O-],?,14%
Nc1c(C(=O)C2CC2)sc2nc(-c3cccs3)cc(C(F)(F)F)c12,i,-2%
COc1ccc(NS(=O)(=O)c2cccc(C(=O)NNC(=O)c3cc(S(N)(=O)=O)ccc3OC)c2)cc1,-19%,-17%
Cc1ccc(C(=O)/C=C/NCc2ccc(F)cc2)cc1,i,-12%
CCCCOc1ccc(N(CC(=O)NC2CCCCC2)C(=O)c2snc(C(N)=O)c2N)cc1,-13%,-9%
CC(C)(C)NC(=O)CSc1nnc(-c2ccncc2)o1,-9%,-10%
O=C(NCCc1ccccc1)c1ccc2c(c1)nc1n2CCOC1,-14%,-10%
O=c1cc(-c2cccc(Br)c2)oc2cccc(O)c12,i,-22%
COc1ccc(Cl)cc1NC(=O)Cn1c(=O)oc2ccccc21,-7%,-7%
O=C1CNC(c2ccccc2Cl)c2cc(Br)ccc2N1 (configuration not stated),-19%,-7%
Cc1noc(C)c1C(=O)N1CCC1(C)C(=O)NS(=O)(=O)c1cccc(Cl)c1 (configuration not stated),4%,0%
CN=c1scc(-c2cc(OC)ccc2OC)n1/N=C/c1c(C)[nH]c2ccccc12,-21%,-16%
CCn1c(SCC(=O)N2CCCCC2)nc2c1c(=O)n(C)c(=O)n2C,2%,9%
COc1ccc(N2CCN(S(=O)(=O)c3ccc(Cl)s3)CC2)cc1,14%,1%
COc1cc(OC)cc(-c2c(Sc3ccccc3)c3cc(-c4ccc5c(c4)OCCO5)ccc3n2C)c1,5%,11%
CC(C)(C)c1ccc(-c2ccc3c(c2)S(=O)(=O)c2ccccc2C3=O)cc1,0%,-2%
Cc1cc(NC(=O)/C=C/c2cccc(F)c2)n(-c2nc3ccccc3[nH]2)n1,-25%,-26%
CCOc1ccc(N(CC(=O)NCc2ccccc2)S(=O)(=O)c2ccc(C)cc2)cc1,-10%,-16%
C[C@H]1COc2cc(N3CCC[C@@H]3CO)ccc2S(=O)(=O)N1,-5%,2%
CN(CC(=O)Nc1ccc(F)cc1)C(=O)C1CCN(S(=O)(=O)c2ccc3c(c2)OCCO3)CC1,-5%,0%
Cc1cccc(S(=O)(=O)Nc2cc(Cl)ccc2N2CCOCC2)c1,-23%,-8%
O=C(Cn1nc(-c2ccccc2)c2ccccc2c1=O)Nc1cccc(O)c1,-25%,-12%
CC(C)(C)Nc1c2ccccc2nc2ccccc12,-4%,-11%
O=C([C@@H]1CC=C[C@@H]2CCN(C3CCCCC3)C(=O)[C@@H]21)N1CCN(c2ccccc2)CC1,-5%,-12%&-10%
CCOC(=O)C1(P(=O)(c2ccccc2)c2ccccc2)CCC1,·,-11%
O=C(CCCN1C(=O)/C(=C/c2cccs2)SC1=S)Nc1ccccn1,-22%,2%
CCN(CC)S(=O)(=O)c1cccc(-c2n[nH]c(=S)n2/N=C/c2ccc(C(=O)OC)cc2)c1,-27%,-23%
COc1ccccc1-c1ccc([C@@H]2C[C@H]3[C@@H](CN2)CON3C)cc1,i,-17%
COc1ccc(-n2c(SCC(=O)NCc3ccccc3)nc3ccsc3c2=O)cc1,7%,-4%
Cc1cccc(N(C(=O)Nc2ccccc2)C2=NCC(C)S2)c1 (configuration not stated),17%,0%
O=C(c1ccccc1)N1CCN(C2C3CC4CC(C3)CC2C4)CC1 (configuration not stated),-9%,-20%
N#Cc1ccc(N2C(=O)[C@@H]3C(C(=O)c4ccc5ccccc5n4)=NN[C@@H]3C2=O)cc1,-13%,-8%
COc1ccccc1NC(=O)N1CCC(NC(=O)C(Cc2ccccc2F)NC(C)=O)CC1 (configuration not stated),-16%,-16%
O=C(NCc1ccccc1F)c1ccc(CSc2nc3cccnc3n2Cc2ccccc2)cc1,-7%,1%
CCS(=O)(=O)NCCc1sc2nc(-c3ccc(OC)cc3)nn2c1C,?,?
O=C1C=C(NC2CCCC2)CC(c2ccccc2)C1 (configuration not stated),-15%,-29%
Cc1ccccc1C1(CC(=O)N2CCC[C@H]2C(N)=O)CC(=O)N(C2CCCC2)C1=O (some centres not stated),-8%,-3%
COc1ccc(-n2c(CNC(=O)c3c(-c4ccccc4)noc3C)nnc2SC)cc1,i,-9%
CSc1nc2sc3c(c2c(=S)[nH]1)CC(C)(C)OC3,i,-9%
COc1ccc(S(=O)(=O)N2CCCC(C(=O)NCc3ccc(F)cc3)C2)cc1 (configuration not stated),-23%,-22%
CCN1CCN(c2ncnc3c2cnn3-c2ccc(C)c(Cl)c2)CC1,-9%,-10%
Cc1ccnc(NC(=O)c2cc3cc(F)ccc3s2)c1,15%,5%
COc1ccc(-n2c(=O)c3c4c(sc3n(Cc3ccccc3Cl)c2=O)CCC4)c(OC)c1,-12%,-11%
CCN(C(=O)CSc1nc2cc(C(F)(F)F)ccc2n1Cc1ccccc1)C1CCS(=O)(=O)C1 (configuration not stated),-12%,-24%

More compounds follow:
Compound | Vaccinia mCherry | VACV Venus inh
c1ccc2c(C3OCC4(CCCCC4)CO3)cccc2c1 | i | -7%
Cc1ccc(-c2cc(C(=O)Nc3cc(C)ccc3O)no2)cc1 | -25% | -24%
CCOc1ccccc1C(=O)Nc1ccc2nc3c(c(Nc4ccc(OC)c(OC)c4)c2c1)CCCC3 | -30% | ?
COc1ccc(C(=O)CSc2cc(C)nc(SCC(=O)c3ccc(C)cc3)n2)cc1 | · | -15%
CCN1C(=O)c2cccc3c(Cl)ccc(c23)C1=O | -18% | 1%
Cn1cc(CCNC(=O)c2ccc3nc(Cc4ccccc4F)oc3c2)cn1 | i | -16%
CCCCC(=O)N1CCN(c2nc(-c3ccc(F)cc3)cs2)CC1 | -15% | -12%
CC(=O)Nc1nc(NC(=O)C(Cl)(Cl)Cl)n(-c2ccccc2)n1 | -3% | -19%
COc1ccc2nc(C)cc(Sc3nc4ccccc4s3)c2c1 | 0.79µM* | 1.4µM*
COc1cc(OC)c(OC)cc1CNc1nnnn1C | i | -9%
O=C(c1cccnc1)N(Cc1ccccc1)C1(C(=O)Nc2ccccc2)CCCCC1 | -8% | -9%
COCCCNC(=O)[C@H](Cc1ccccc1)NC(=O)CC[C@H]1O[C@@H](n2ccc(=O)[nH]c2=O)[C@H](O)[C@@H]1O | -9% | 3%
CCCCC[C@H](C)N1C[C@@H](COCc2ccccc2)Oc2cc(N3CCC[C@H]3CO)ccc2S1(=O)=O | i | -7%
COCCNc1nc(-c2cccc(OC)c2)nc2ccccc12 | -25% | -21%
O=C(Cn1c(=O)n(-c2ccccc2)c(=O)c2ccc(C(=O)NCc3ccc4c(c3)OCO4)cc21)Nc1ccc(F)c(Cl)c1 | -12% | -19%
O=C(Nc1ccc(N2CCN(C(=O)c3cccs3)CC2)cc1)c1ccccc1Cl | ? | ?
COc1ccc(C(C(=O)OC(C)CN(C)C)c2ccccc2)cc1 (configuration not stated) | · | -12%
COc1ccc(NS(=O)(=O)c2cc3[nH]c(=O)c(=O)[nH]c3cc2C)cc1Cl | -6% | -8%
N#Cc1cccnc1Nc1ccc(Cl)cc1 | i | -4%
CN1CCN(/C(=N\S(=O)(=O)c2ccc(F)cc2)c2ccccc2)CC1 | · | -4%

No new results follow: entries from further up.
Compound | Vaccinia mCherry | VACV Venus inh
O=C(Cn1c(=O)n(-c2ccccc2)c(=O)c2ccc(C(=O)NCc3ccc4c(c3)OCO4)cc21)Nc1ccc(F)c(Cl)c1 | -12% | -19%
O=C(Nc1ccc(N2CCN(C(=O)c3cccs3)CC2)cc1)c1ccccc1Cl | ? | ?
COc1ccc(C(C(=O)OC(C)CN(C)C)c2ccccc2)cc1 (configuration not stated) | · | -12%
COc1ccc(NS(=O)(=O)c2cc3[nH]c(=O)c(=O)[nH]c3cc2C)cc1Cl | -6% | -8%
N#Cc1cccnc1Nc1ccc(Cl)cc1 | i | -4%
CN1CCN(/C(=N\S(=O)(=O)c2ccc(F)cc2)c2ccccc2)CC1 | · | -4%

Next section.
Compound | Vaccinia mCherry | VACV Venus inh
Cc1ccc(CNC(=O)CCS(=O)(=O)c2ccc(Br)cc2)cc1 | -16% | -5%
CCO[C@H]1OC(C(=O)NCc2nc3ccccc3[nH]2)=C[C@@H](C2CC2)[C@@H]1CCCO | i | ?
Cc1ccc(NC(=O)c2cc(S(=O)(=O)N3CCC4(CC3)OCCO4)ccc2F)cc1Cl | -1% | -8%
COc1cc(C2(c3ccc(O)c(OC)c3)C(=O)Nc3c(C)cc(Br)cc32)ccc1O | -30%[7.34 µM] | -6%[7.34 µM]
Cc1ccccc1CS(=O)(=O)Cc1ccc(C(=O)NCCCN2CC(C)CC(C)C2)o1 (configuration not stated) | i | -8%
CCCCNc1c(-c2cccc(-c3cc(C(C)=O)cs3)c2)nc2ccc(C)cn12 | ? | ?
O=C(Nc1ccc(Br)cc1)N1CCC(CN2CCCC2)CC1 | -5% | -11%
CC1CC(C)(C)N(C(=O)CSc2ccc(-c3ccc(F)cc3)nn2)c2ccccc21 (configuration not stated) | -11% | ?
COc1ccc(-c2cc(C)no2)cc1S(=O)(=O)NC1CCC(C)CC1 (configuration not stated) | i | -15%
CC(=O)Nc1ccc(C(=O)NC2CCCC2)cc1 | i | -6%
Cc1ncc2c(c1CNC(=O)c1ccc3c(c1)OCO3)CCN(C(=O)c1noc3c1CCCC3)C2 | -7% | -4%
O=C(Nc1nnc(-c2ccccc2)o1)c1cccc(S(=O)(=O)N2CCOCC2)c1 | i | -23%
Cc1ccc(CNC(=O)Cn2ncc3c(C)n(Cc4ccc(Cl)cc4)c(C)c3c2=O)cc1 | -17% | -29%
N#Cc1ccccc1CN1C(=O)S/C(=C/c2cccn2-c2ccc(C(=O)O)cc2)C1=O | · | 0%
COc1ccc(-c2cc(=O)oc3cc(OCC(C)=O)ccc23)cc1 | i | -11%
CN1CCN(C(=O)c2cc([N+](=O)[O-])ccc2Cl)CC1 | i | -5%
CCCS(=O)(=O)NC(=O)C1(C)CCN(C(=O)c2cc(OC)c(OC)c(OC)c2)C1 (configuration not stated) | 40%[activator] | -9%
C=CCNC(=O)c1ccccc1NC(=O)COc1ccccc1 | 19% | 0%
CCOc1cccc(NC(=O)C2CC(=O)NC(=Nc3ccccc3)S2)c1 (configuration not stated) | · | -18%
O=C(c1ccncc1)N1N=C(c2ccc(Br)cc2)CC1c1ccccc1O (configuration not stated) | ? | -28%
COC(=O)C1=C(N)N(c2ccccc2F)C2=C(C(=O)CC(C)(C)C2)C1c1ccc(OC)c(OC)c1 (configuration not stated) | 2% | -19%
C/C=C/c1ccccc1OCc1ccc(C(=O)OC)o1 | -12% | 1%
c1coc(-c2nc3nc4ccccc4n3nc2-c2ccco2)c1 | -8% | 1%
Cc1ccc(CN2C(=O)CSCC2(C)C(=O)NC(C)C)cc1 (configuration not stated) | -4% | -5%
COC(=O)CCc1sc(Nc2ccccc2)nc1-c1ccc(OC)cc1 | -1% | -17%
Cc1ccc(/C(N)=N/OC(=O)c2ccc3ccccc3c2)cc1 | -4% | -12%
COc1ccc(N2CCN(CC(=O)NC(=O)NCc3ccccc3)CC2)cc1 | -14% | -16%
S=C(NCc1ccccc1)N1CCn2cccc2C1c1cccnc1 (configuration not stated) | -10% | -6%
COc1ccc(NC(=O)c2n[nH]c(=O)c3ccccc23)cc1S(=O)(=O)N1CCCCC1 | ? | -27%
Cc1c(NC(=O)C2CCCNC2=O)c(=O)n(-c2ccccc2)n1C (configuration not stated) | -11% | -8%

High-throughput results as filed in PubChem BioAssay.
